# Compound activity (PubChem BioAssay)
# gsp agonist = qHTS for Agonist of gsp, the Etiologic Mutation Responsible for Fibrous Dysplasia/McCune-Albright Syndrome: qHTS. 340,000 tested, 0.13% active. gsp mutant cells, cAMP HTRF, 30 min; control for the full effect not named in the record. AID 624287, 2012. Potency, µM (top dose mostly 76.9 µM), for inactives: top-dose activation (cAMP increase), hits mostly activators; active = well fitted activation curve with a large enough effect; inconclusive = small, poorly fitted or top-dose-only effect, or another doubt; inactive = no such curve, though single readings can be large or run the other way; cell line not stated here;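 further: phosphodiesterase inhibitor Ro 20-1724 added with compounds to block cAMP breakdown; potency means the concentration at half of the fitted maximal effect; nearly all actives have a fitted effect of over 60% in size; about a fifth of the inactives were tested at one dose only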
#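 Cells stably selected in G418 were plated at 2000/well, grown 16-24 hr, then given compounds in DMSO with the PDE inhibitor […] (300 uM solution added) for 30 min at 37C; cAMP was read by HTRF.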
# ClpP mod = qHTS Assay for Activators of ClpP | purified B. subtilis ClpP, FRET peptide cleavage, 20 min | 340,000 tested, 1.9% active | Potency, µM (highest dose often 57.5 µM), for the others: top-dose activity change, negative = active | ATP-dependent Clp protease proteolytic subunit (Bacillus subtilis (strain 168)), P80244; active = well fitted falling curve with a large enough effect; inconclusive = small, poorly fitted or top-dose-only effect; inactive = no such curve, though single readings can be large or run the other way; further: potency means the concentration at half of the fitted maximal effect; the source files actives as falling curves though it sought activators and does not explain the sign; nearly all actives have a fitted effect of over 65% in size; many hits overshoot -100%
# Target sequence (P80244 whole entry, looked up): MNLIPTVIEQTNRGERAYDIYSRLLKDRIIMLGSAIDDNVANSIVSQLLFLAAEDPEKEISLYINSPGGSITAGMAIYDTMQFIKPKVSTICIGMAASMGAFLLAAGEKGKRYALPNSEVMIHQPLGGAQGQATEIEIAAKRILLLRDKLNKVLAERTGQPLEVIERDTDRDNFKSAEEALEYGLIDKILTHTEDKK
#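 ClpP 10 microg/mL final, pH 8 Tris/KCl buffer with BSA, glycerol, Tween-20; compound pinned in; FRET-FV substrate; RT 20 min; Ex320/Em430; ΔFRET vs ADEP 5.8 microM, DMSO, no enzyme.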
# gsp antag = qHTS for Antagonists of gsp, the Etiologic Mutation Responsible for Fibrous Dysplasia/McCune-Albright Syndrome: qHTS; 340,000 tested, 0.4% active; gsp-mutant cells, cAMP HTRF, 30 min; control for the full effect not named in the record; Potency, µM (top dose mostly 76.9 µM), without a hit: top-dose activity change, negative = inhibition, usual class: inhibitors; active = falling curve of any shape with a large fitted effect; inconclusive = falling curve, mostly with a smaller effect; inactive = flat or rising curve; cell line not stated here;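 further: intracellular cAMP measured with PDE inhibitor Ro 20-1724 present during compound exposure; potency means the concentration at half of the fitted maximal effect; on the % scale 0 is the no-effect control and ±100 the full control effect; nearly all actives have a fitted effect of over 65% in size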
#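 Cells in G418 medium, seeded 16-24 h, 37C; buffer exchange to DPBS + 1 mM CaCl2, 0.5 mM MgCl2, 0.05% BSA; cpds in DMSO + […] (300 uM stock), 30 min 37C; HTRF cAMP detection.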
# Menin MLL FP FL = qHTS Assay for Inhibitors Targeting the Menin-MLL Interaction in MLL Related Leukemias: Competition With Fluorescein Labeled MLL-derived Peptide; AID 1766, 2009; FP activity change, % at 61.4 µM; Fluorescence polarization, fluorescein-MLL peptide displacement from menin; 290,000 tested, under 10 active; inconclusive = falling polarisation curve, or a change in total fluorescence; inactive = total fluorescence flat and polarisation flat or rising; no compound was filed as active; the % refers to the polarisation; negative = inhibition;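 further: % of control where 0% means no effect; inhibitors lower the polarisation; unlabelled MLL peptide was the positive control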
# TRPV1 potentiator = HTS Assay for Compounds that Act as Potentiators of the Vanilloid Receptor 1; Transient receptor potential cation channel subfamily V member 1 (Homo sapiens), Q8NER1; 320,000 tested, 0.02% active; AID 540277, 2011; TRPV1-expressing cells, Fluo-8 calcium influx, capsaicin EC20 potentiation; host cell line not named in the record; control for the full effect not named in the record; potentiation, % at 8.33 µM; active means potentiation above 80%; inconclusive means 30% to 80%; inactive means below 30%; further: 0% is about no effect
# Target sequence (Q8NER1 whole entry, looked up): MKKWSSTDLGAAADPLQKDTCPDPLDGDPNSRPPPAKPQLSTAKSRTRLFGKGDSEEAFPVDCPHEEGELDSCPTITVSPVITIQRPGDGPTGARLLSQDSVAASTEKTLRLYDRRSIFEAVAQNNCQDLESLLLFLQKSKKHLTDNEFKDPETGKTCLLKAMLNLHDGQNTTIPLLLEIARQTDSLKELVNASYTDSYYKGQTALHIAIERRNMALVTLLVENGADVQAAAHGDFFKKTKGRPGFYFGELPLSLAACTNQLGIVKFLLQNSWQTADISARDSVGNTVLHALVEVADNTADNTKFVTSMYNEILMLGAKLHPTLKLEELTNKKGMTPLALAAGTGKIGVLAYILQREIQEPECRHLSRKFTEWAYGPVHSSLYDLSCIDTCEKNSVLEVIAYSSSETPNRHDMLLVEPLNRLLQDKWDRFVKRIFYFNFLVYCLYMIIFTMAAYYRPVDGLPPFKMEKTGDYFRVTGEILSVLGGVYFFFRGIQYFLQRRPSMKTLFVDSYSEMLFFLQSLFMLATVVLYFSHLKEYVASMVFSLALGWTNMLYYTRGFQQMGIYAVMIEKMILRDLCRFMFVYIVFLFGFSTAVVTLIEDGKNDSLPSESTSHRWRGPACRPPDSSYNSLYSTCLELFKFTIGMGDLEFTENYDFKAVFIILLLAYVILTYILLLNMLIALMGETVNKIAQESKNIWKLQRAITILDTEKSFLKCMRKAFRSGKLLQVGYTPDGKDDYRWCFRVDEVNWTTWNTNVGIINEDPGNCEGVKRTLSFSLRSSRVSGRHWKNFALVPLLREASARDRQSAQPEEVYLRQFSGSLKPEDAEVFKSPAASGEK
#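 Fluo-8 calcium influx in TRPV1-expressing cells, kinetic read (ex 480/em 520 nm). Compound added and read 3 min for agonist activity, followed by capsaicin at EC20 final and 2 min further read for enhancement.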
# D2 potentiator = Beta-Arrestin HTS for Positive Allosteric Modulators of the Human D2 Dopamine Receptor: Potentiators. DiscoveRx D2 beta-arrestin cells, luminescence, 90 min; 100% = 57 uM dopamine signal. potentiation, % (no concentration beside the values). 360,000 tested, 0.23% active. AID 624464, 2012; active = potentiation of 50% or more; inconclusive = 30% to 50%; inactive = 30% or less;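 further: compound concentration not given in the record; tested on top of an EC20 dose of dopamine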
#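 PathHunter beta-arrestin assay in DiscoveRx D2 cells. Compounds were added with an EC20 of dopamine (50 nM final) for 90 min at 37 deg C. Luminescence was read 1 h after detection reagent, with 57 uM dopamine as the EC100 control.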
# Sfp inh = qHTS Assay for Inhibitors of Bacillus subtilis Sfp phosphopantetheinyl transferase (PPTase); 4'-phosphopantetheinyl transferase ffp (Bacillus subtilis), Q9F4F7; Biochemical Sfp PPTase activity, qHTS; Potency, µM, for inactives: max response, negative = inhibition, usual class: inhibitors; 310,000 tested, 3.5% active; AID 1490, 2009; active means well fitted inhibition curve with a large enough effect; inconclusive means small, poorly fitted or top-dose-only effect, or another doubt; inactive means no such curve, though single readings can be large or run the other way;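 further: the enzyme is Sfp with the accession as filed and its product quenches rhodamine fluorescence; potency means the concentration at half of the fitted maximal effect; 0% = enzyme reaction without inhibitor and -100% = no enzyme wells; top concentration of the series not given in the record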
#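 Compounds were incubated with enzyme (final 15 nM) for 15 min at room temperature before substrate addition started the reaction. Fluorescence at 525 nm excitation, 598 nm emission was recorded immediately and after 30 minutes.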
# Numbers without * were called inactive; ? = inconclusive; . = not tested or not shown; [ ] = remark or other dose. Random draw from the library; about 5.1% have a hit in one of these screens.
SMILES,gsp agonist,ClpP mod,gsp antag,Menin MLL FP FL,TRPV1 potentiator,D2 potentiator,Sfp inh
Cc1occc1C(=O)Nc1ccc(Br)cc1F,1%,2.3%,-14%,0.7,-7,0,4%
CCCCn1c(=O)n(CC(=O)NCc2ccc(C)cc2)c(=O)c2c1nc(CO)n2CCC,?,-1.5%,6%,11,-15,2,-11%
CCCc1nn(-c2cc(Cl)ccc2OC)c2c1C(=O)CC(C)(C)C2,12%,0.8%,-14%,4.4,-26,-8,7%
COc1ccc(CCNC(=O)C2CC2)cc1,5%[15.4 µM],.,4%,.,.,-6,.
COc1ccc(CNC(=O)C2(CC3CC(c4ccccc4)=NO3)CCN(C(=O)OC(C)(C)C)CC2)cc1 (stereo not given),23%,-0.5%,-19%,.,.,-12,.
CCCCOc1ccc(C(=O)N=c2sccn2C)cc1OC,2%,-12%,-2%,.,-14,-5,-1%
O=C(O)c1ccc(S(=O)(=O)N2CCc3ccccc3C2)cc1,24%,-0.5%,-10%,-5.2,-8,5,-9%
O=C(NCc1cccc(C(F)(F)F)c1)c1ccc2c(c1)OCO2,-4%,-6.0%,2%,-3.6,-19,-5,7%
COc1cc(C(=O)N(Cc2ccc(N(C)C)cc2)C2CCS(=O)(=O)C2)cc(OC)c1OC (stereo not given),2%,0.1%,-10%,4.8,-9,-2,15%
CN(Cc1ccccc1)S(=O)(=O)c1ccc(Cl)c(C(=O)O)c1,9%,.,12%,-2.6,2,-6,22%
C/C(=N\NC(=O)CC1N=C(Cc2ccccc2)NNC1=O)c1ccncc1 (stereo not given),?,1.2%,11%,4.1,-2,-17,13%
CCOc1ccc(/C(O)=C2/C(=O)C(=O)N(CC3CCCO3)C2c2ccc(C)o2)cc1 (stereo not given),?,-0.4%,10%,-1.8,10,1,-22%
C/C(=N\N=C(N)N)c1cccc([N+](=O)[O-])c1,-36%[inhibitor],-3.8%,3%,0.5,-3,-30,-3%
CN(Cc1c(F)cccc1Cl)C(=O)c1cnc2ccccc2n1,6%[15.4 µM],.,2%,2.6,-5,-7,1%
CC(=O)N(c1nc(CCl)cs1)c1cccc(C)c1C,-38%[inhibitor],0.7%,-6%,-3.4,-9,-3,15%
COc1ccccc1CNC(=O)CN1C(=O)NC(c2ccccc2)(c2ccccc2)C1=O,0%,.,-14%,.,.,-3,.
COc1cc(OC)c(OC)cc1CN(C)CC1CCCN(CCc2ccccc2F)C1 (stereo not given),2%,-4.0%,11%,-4.9,0,-69,-6%
CCOC(=O)Nc1ccc(C(=O)/C=C/c2ccccc2)cc1,30%,-0.5%,-23%,6.2,9,-1,4%
Cc1c(C(=O)O)oc2c1C(=O)CC(C)(C)C2,16%,.,9%,-4.7,7,-4,-15%
Cc1ccc2nsnc2c1S(=O)(=O)N(CCO)Cc1cc2cc3c(cc2[nH]c1=O)OCCO3,-24%,-24%,-5%,0.8,28,-1,-1%

# Full records, quoted from the list.
# Results for Cc1ccc2nsnc2c1S(=O)(=O)N(CCO)Cc1cc2cc3c(cc2[nH]c1=O)OCCO3 → gsp agonist = -24%; ClpP mod = -24%; gsp antag = -5%; Menin MLL FP FL = 0.8; TRPV1 potentiator = 28; D2 potentiator = -1; Sfp inh = -1%
# Results for C/C(=N\NC(=O)CC1N=C(Cc2ccccc2)NNC1=O)c1ccncc1 (stereo not given) → gsp agonist = ?; ClpP mod = 1.2%; gsp antag = 11%; Menin MLL FP FL = 4.1; TRPV1 potentiator = -2; D2 potentiator = -17; Sfp inh = 13%
# Results for CN(Cc1c(F)cccc1Cl)C(=O)c1cnc2ccccc2n1 → gsp agonist = 6%[15.4 µM]; ClpP mod = .; gsp antag = 2%; Menin MLL FP FL = 2.6; TRPV1 potentiator = -5; D2 potentiator = -7; Sfp inh = 1%

# Next records.
SMILES,gsp agonist,ClpP mod,gsp antag,Menin MLL FP FL,TRPV1 potentiator,D2 potentiator,Sfp inh
C[C@H](CO)N1C[C@H](C)[C@@H](CN(C)Cc2ccccc2)Oc2c(NS(=O)(=O)c3ccccc3)cccc2C1=O,.,0.2%,-23%,.,.,-2,.
CSCCC(NC(=O)COc1ccccc1)C(=O)OCCOc1ccc(C)cc1 (stereo not given),-33%[inhibitor],-3.0%,-12%,.,-4,-1,.
CCC(CC)C(=O)Nc1cccc(C(=O)N2CCCC2)c1,4%,-2.4%,2%,0.8,24,-2,6%
Cc1occc1C(=O)Nc1ccccc1C(=O)O,8%,-3.0%,-7%,0.2,3,-7,17%
S=c1[nH]nc2nnc3ccccc3n12,9%,.,-21%,1.7,8,-12,56µM*
CCOc1ccc(NS(=O)(=O)c2cccc(C(=O)N3CCN(C/C=C/c4ccccc4)CC3)c2)cc1,-57%[inhibitor],2.4%,?,.,.,-25,.
COc1cc(S(=O)(=O)n2cnc3ccccc32)ccc1Br,-47%[inhibitor],0.2%,6%,-1.6,2,7,-11%
N#CCSc1ccccc1NC(=O)CN1C(=O)C2CC=CCC2C1=O (stereo not given),8%[15.4 µM],.,2%,.,0,-1,.
CCN(CC)c1ccc(C=Nc2ccccc2)c(O)c1,-1%,21%,1%,8.6,-11,-10,-29%
O=C1C(=Cc2ccc(Br)o2)C(=O)c2ccccc21,-5%[15.4 µM],0.8%,8%,9.7,-5,-5,56µM*
Cc1cn(C2CCCCO2)c(=O)[nH]c1=O (stereo not given),-24%,.,3%,.,.,1,.
CC1(C)CNC(=O)c2sc(NC(=O)c3ccccc3)nc2C1,2%[15.4 µM],.,-8%,-1.2,-5,11,14%
COc1ccc(-c2csc(NC3OC(=O)c4c3ccc(OC)c4OC)n2)cc1OC (stereo not given),13%[15.4 µM],.,-13%,1.0,4,0,?
COc1ccc(C2=NN(C(C#N)c3ccc(OC)cc3)C(c3ccccc3)C2)cc1 (stereo not given),-5%,2.1%,5%,2.2,-7,-16,-5%
CC1(C)Cc2ccccc2C(C(Cc2ccccc2)C(N)=O)=N1 (stereo not given),-2%[15.4 µM],1.0%,10%,1.6,-10,-2,10%
N#Cc1ccc(CN2CCN(C(=O)CCNS(=O)(=O)c3ccc(F)c(Cl)c3)CC2)cc1,12%,-3.0%,-2%,.,-12,-3,.
O=C(O)CCn1c(SCCOc2ccccc2)nc2ccccc21,?,-0.1%,-13%,0.6,-23,-6,13%
Cc1cc(C)n(CC(O)COc2c(C)cccc2C)n1 (stereo not given),-42%[inhibitor],0.4%,11%,-8.9,-2,-1,15%
O=C(NCc1cc([N+](=O)[O-])ccc1O)c1cc(-c2ccncc2)nc2ccccc12,?,0.4%,40µM*,.,-21,21,13%
COc1ccccc1NC(=O)CSc1ccc2nnc(-c3cccnc3)n2n1,?,0.8%,18%,0.3,?,2,7%
CCC(CC)C(=O)Nc1ccccc1NC(C)=O,3%,-1.2%,8%,3.6,-12,8,10%
O=C1NC[C@H](CC2CCCCC2)N(CC2CCCCC2)C1=O,?,0.9%,6%,.,7,-12,.
CCOC(=O)N1CCN(CC(O)c2c[nH]c3ccccc23)CC1 (stereo not given),-7%[15.4 µM],-1.7%,12%,2.2,10,-2,3%
CC1(C)CC[C@]2(C(=O)O)CC[C@]3(C)C(=CC[C@@H]4[C@@]5(C)CC[C@H](O)C(C)(C)[C@@H]5CC[C@]43C)[C@@H]2C1,.,-1.9%,-11%,4.3,?,-4,12%
c1csc(CNc2nc(-c3cccs3)nc3ccccc23)c1,-1%[15.4 µM],.,-22%,3.7,19,0,-13%
CCOc1cc(C(=O)OCC(=O)c2cc(C)n(CC3CCCO3)c2C)ccc1OCC(=O)N1CCOCC1 (stereo not given),1%,1.6%,-6%,5.5,10,0,5%
COc1ccc(CCN(C)C(=O)CSc2ncnc3sccc23)cc1OC,-1%[15.4 µM],.,-8%,?,-7,-1,20%
CCOC(=O)Nc1cccc2c1-c1ccc([N+](=O)[O-])cc1C2=O,2%,-2.4%,-6%,.,.,6,.
CCCc1ccc2oc(C(=O)N(Cc3nccn3C)C(C)C)c(C)c2c1,5%,1.3%,2%,-0.9,-5,-3,3%
O=c1cc(-c2ccccc2F)nc(-c2ccccc2F)o1,-36%,-2.2%,5%,4.6,0,-2,9%
CCN(CC)S(=O)(=O)c1cccc2c(N(C)C)cccc12,?,3.5µM*,3%,3.3,-4,-4,-1%
CC(CCc1ccccc1)NC(=O)COC(=O)c1ccccc1O (stereo not given),13%,21%,-2%,3.6,-22,0,4%
O=C(N[C@@H](Cc1ccc(O)cc1)C(=O)O)C(c1ccccc1)c1ccccc1,.,1.7%,2%,-0.4,0,-22,10%
CN(C)c1ccc(C(=O)N2CCNC(=O)C2CC(=O)Nc2ccc(F)cc2)cc1 (stereo not given),-1%,-0.8%,-21%,.,0,-29,-5%
Cc1nn(C(C)C(=O)NCc2ccccc2F)c(=O)c2nn(-c3ccccc3)c(C)c12 (stereo not given),8%,0.8%,-12%,-1.6,-22,-8,13%
COc1ccc(-c2noc(CCCC(=O)NC3CCCC3)n2)cc1OC,61%,-1.4%,-13%,-0.7,-4,-1,13%
O=C(NCc1ccccc1)C(c1ccco1)N(C(=O)c1csnn1)c1ccccc1 (stereo not given),?,.,-3%,-0.5,6,-5,7%
Cc1cc(=S)cc(C)n1CCCO,-2%,85%,11%,-4.0,-2,-2,?
CCCCN1C(=O)C(CC(=O)NCc2ccco2)CC(C(=O)N(CC)CC)=C1C (stereo not given),-30%,-0.3%,.,.,.,3,.
O=C(Nc1nccs1)c1csc2c1CCCC2,-1%,-1.4%,9%,1.7,10,1,6%
